Source: PubChem (Broad Institute)
DUX4 inh = inhibitors of DUX4-driven ZSCAN4 reporter expression, primary screen, 293T cells, Gaussia and Italica luciferase. 0.8% of 37,000 active. AID 1224904, 2016. activity change, negative = inhibition, % (concentration not given with the values). 293T-iDUX4 ZSCAN4-Gaussia luciferase reporter, 24 h; hits give low values;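 active = -10% or lower and over 25 points stronger than a control reporter; inconclusive = -10% or lower with a smaller gap; inactive = above -10%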;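 also: 0% = median of neutral control wells and -100% = median of positive control wells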
DUX4 inh difference = recorded beside DUX4 inh, whose call it bears; Gaussia minus Italica difference, %; measured here: selective DUX4 reporter inhibition;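 worked out from the two reporters; negative = selective loss of the DUX4 reporter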
DUX4 inh control = recorded beside DUX4 inh, whose call it bears; activity change, negative = inhibition, %; measured here: Italica tet-on control reporter;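 0 = neutral control and -100 = positive control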
Numbers without * were called inactive; ? = inconclusive; . = not tested or not shown. This is a subset, so the mix of outcomes need not match the whole.

mol	DUX4 inh	DUX4 inh difference	DUX4 inh control
CN1C(=O)c2cc(NC(=O)Cc3ccccc3)ccc2OC[C@H]2O[C@@H](CC(=O)NCc3ccc(Cl)cc3)CC[C@@H]21	2.3	-1.0	3.3
CCCN1[C@@H]2c3ccc(-c4cccnc4)c(=O)n3C[C@@H]2[C@@H](CO)[C@@H]1C(=O)NCCN1CCCC1	-1.1	-1.8	0.7
C[C@@H]1CN([C@H](C)CO)C(=O)c2c(c3ccccc3n2C)-c2ccccc2CO[C@H]1CN(C)C(=O)c1ccc(F)cc1	?	.	.
O=C(c1ccncc1)N1C[C@H]2[C@@H](c3ccccc31)[C@@H](CO)N2Cc1ccc(F)cc1	-0.9	2.8	-3.7
COCCNC(=O)C[C@@H]1C[C@H]2c3cc(NC(=O)Nc4ccc(OC)cc4)ccc3O[C@H]2[C@@H](CO)O1	-0.8	-5.3	4.4
COc1ccc2c3c(n(C)c2c1)[C@H](CO)N(C(=O)c1ccccc1)CC31CCN(CC2CC2)CC1	11.8	17.2	-5.4
COc1ccc2c3c([nH]c2c1)[C@H](CO)N(C(C)=O)CC31CN(S(=O)(=O)c2cccs2)C1	19.3	10.2	9.1
CC(=O)N1CC(=O)N2[C@H](C1)[C@H](c1ccc(-c3cccc(C(=O)N(C)C)c3)cc1)[C@@H]2CO	0.8	-9.8	10.6
COCCNC(=O)C[C@@H]1CC[C@@H]2[C@H](COC[C@@H](O)CN2C(=O)Nc2ccccc2OC)O1	1.5	-0.6	2.1
CN1CCN(C(=O)C[C@@H]2C[C@H]3c4cc(NC(=O)Nc5ccc(C(F)(F)F)cc5)ccc4O[C@H]3[C@H](CO)O2)CC1	-2.4	-0.8	-1.6

The list goes on:
mol	DUX4 inh	DUX4 inh difference	DUX4 inh control
CC(=O)N1[C@@H]2Cn3c(ccc(-c4ccccc4F)c3=O)[C@H]1[C@@H](C(=O)NC1CCC1)[C@@H]2CO	-2.1	-5.5	3.5
C[C@H]1CN([C@@H](C)CO)C(=O)c2cc(NS(C)(=O)=O)ccc2O[C@@H]1CN(C)C	-0.1	-0.8	0.7
Cc1ccccc1S(=O)(=O)N(C)C[C@@H]1OCc2cn(nn2)CCCC(=O)N([C@@H](C)CO)C[C@H]1C	2.1	-0.5	2.6
COc1ccc(NC(=O)N2CCCCN3[C@H](CO)[C@@H](c4ccc(C#CCC(C)C)cc4)[C@@H]3C2)cc1	-17.3*	-25.2*	7.9*
COc1ccccc1-c1ccc([C@@H]2[C@H]3CN(S(=O)(=O)c4cn(C)cn4)CCCCN3[C@H]2CO)cc1	-4.7	-1.8	-2.8
CC(C)NC(=O)N1CCCCN2[C@H](CO)[C@H](c3ccc(C4=CCCC4)cc3)[C@@H]2C1	6.5	-0.9	7.4
O=C(C1CC1)N1[C@H](CO)[C@H](c2ccccc2)C12CN(CCC(F)(F)F)C2	1.1	1.5	-0.4
O=C(Nc1ccccc1F)N1CC(=O)N2[C@H](CO)[C@H](c3ccc(-c4cccnc4)cc3)[C@@H]2C1	-0.7	1.2	-1.9
C[C@@H]1CN([C@@H](C)CO)C(=O)Cc2cc(NC(=O)Nc3ccc4c(c3)OCO4)ccc2O[C@H]1CN(C)S(=O)(=O)c1ccccc1	-3.7	-5.9	2.2
O=C(C[C@@H]1C=C[C@H](NC(=O)c2cnccn2)[C@@H](CO)O1)NCc1ccccc1F	-1.4	-0.6	-0.8

Additional records:
mol	DUX4 inh	DUX4 inh difference	DUX4 inh control
COc1ccccc1-c1ccc([C@@H]2[C@@H](C#N)N(C(=O)C3CC3)[C@@H]2CO)cc1	-3.9	-5.5	1.6
COc1ccccc1CNC(=O)C[C@H]1C[C@H]2c3cc(NC(=O)Cc4ccncc4)ccc3O[C@H]2[C@@H](CO)O1	3.8	3.8	0.0
Cc1noc(C)c1NC(=O)Nc1ccc2c(c1)C(=O)N([C@@H](C)CO)C[C@@H](C)[C@H](CN(C)Cc1ccc3c(c1)OCO3)OCCCC[C@@H](C)O2	2.2	1.1	1.0
CCCNC(=O)N[C@H]1CC[C@H](CCn2cc(C3CC3)nn2)O[C@@H]1CO	6.6	0.9	5.7
COC(=O)c1ccc(CN2CC(=O)N3[C@H](C2)[C@@H](c2ccc(-c4ccccc4F)cc2)[C@@H]3CO)cc1	-5.1	-7.6	2.5
O=C(Nc1cccc(F)c1)N1CC(=O)N2[C@H](CO)[C@@H](c3ccc(C#CC4CC4)cc3)[C@H]2C1	0.0	13.1	-13.1
O=C(C[C@@H]1CC[C@@H]2[C@H](COC[C@H](O)CN2Cc2nccs2)O1)NCc1ccc(Oc2ccccc2)cc1	?	.	.
COC(=O)C[C@H]1C[C@@H]2c3cc(NC(=O)CN(C)C)ccc3O[C@@H]2[C@H](CO)O1	4.7	6.0	-1.3
CCCC#Cc1cnc2c(c1)C(=O)N([C@@H](C)CO)C[C@@H](C)[C@H](CN(C)C(=O)Nc1cc(F)ccc1F)O2	2.9	-2.0	4.9
CN1CCN(C(=O)C[C@@H]2CC[C@H]3[C@@H](COC[C@H](O)CN3S(=O)(=O)c3cccc(Cl)c3)O2)CC1	11.7	6.8	4.9

(listing goes on)
mol	DUX4 inh	DUX4 inh difference	DUX4 inh control
CO[C@@H]1CN(C)C(=O)c2ccc(NS(=O)(=O)c3cccc(F)c3)cc2OC[C@@H](C)NC[C@H]1C	?	.	.
COc1ccc(NC(=O)N(C)C[C@H]2OCCCC[C@H](C)Oc3ccc(NS(=O)(=O)c4cccs4)cc3C(=O)N([C@H](C)CO)C[C@@H]2C)cc1	2.8	-4.4	7.2
C[C@@H]1CCCCO[C@H](CN(C)C(=O)CCCN(C)C)[C@H](C)CN([C@@H](C)CO)C(=O)c2cc(NS(=O)(=O)c3cn(C)cn3)ccc2O1	7.0	5.1	1.9
CCS(=O)(=O)Nc1ccc2c(c1)C(=O)N(C)[C@@H]1CC[C@@H](CC(=O)N[C@H]3CCN(Cc4ccccc4)C3)O[C@H]1CO2	-2.1	-3.6	1.5
COc1ccc2c3c([nH]c2c1)[C@@H](CO)NCC31CCN(C(=O)Nc2ccc(F)cc2)CC1	3.0	2.2	0.9
CN1CCN(C(=O)C[C@H]2C[C@@H]3c4cc(NC(=O)c5ccc6c(c5)OCO6)ccc4O[C@@H]3[C@@H](CO)O2)CC1	2.2	0.4	1.8
CO[C@H]1CN(C)C(=O)c2cc(NC(=O)C3CC3)ccc2OC[C@H](C)N(Cc2cc(F)ccc2F)C[C@H]1C	?	.	.
CC(=O)N1[C@@H](CO)[C@@H](c2ccccc2)[C@@H]1CN(C)S(=O)(=O)c1ccccc1	0.4	2.9	-2.5
C[C@@H]1CN([C@@H](C)CO)C(=O)c2cc(N(C)C)ccc2O[C@@H](C)CCCCO[C@H]1CN(C)C(=O)C1CCCCC1	-2.4	-4.3	2.0
COCC(=O)N1[C@H](CO)[C@H]2c3ccccc3N(C(=O)c3ccccc3F)C[C@H]21	2.2	6.3	-4.2

(next part)
mol	DUX4 inh	DUX4 inh difference	DUX4 inh control
O=C(NCC1CC1)[C@@H]1[C@@H](CO)[C@@H]2Cn3c(cccc3=O)[C@H]1N2CCc1ccccc1	-1.6	-2.3	0.7
O=C1NC(Cc2ccc(Cl)cc2)COCc2cnnn2CCC1c1ccccc1 (configuration not stated)	0.3	-4.1	4.4
C[C@H]1CN([C@@H](C)CO)C(=O)c2c(c3ccccc3n2C)-c2ccccc2CO[C@H]1CN(C)Cc1ccc(Oc2ccccc2)cc1	?	.	.
C[C@@H]1CN([C@@H](C)CO)C(=O)c2cc(-c3cccnc3)cnc2O[C@H]1CN(C)C(=O)C1CCCCC1	-2.3	-3.6	1.3
CC(C)OC(=O)N(C)C[C@@H]1OCc2ccccc2-c2c(n(C)c3ccccc23)C(=O)N([C@H](C)CO)C[C@H]1C	-4.1	-3.2	-0.9
CC(=O)N(CC(C)C)C[C@H]1[C@@H](c2ccc(C3=CCCC3)cc2)[C@@H](CO)N1C(C)=O	2.3	0.4	1.9
CO[C@H]1CC[C@H]2CCOc3ccc(C#N)cc3C(=O)N(C)C[C@H](OC)[C@@H](C)C(=O)N(C)C[C@H]1O2	-0.6	-2.7	2.2
CN(C)CC(=O)N[C@@H]1CC[C@@H](CC(=O)O)O[C@@H]1CO	-1.2	-5.8	4.7
CCc1cnc(N2[C@H](C#N)[C@@H](c3ccc(-c4cccc(F)c4)cc3)[C@H]2CO)s1	3.8	-0.2	4.0
COCC(=O)N1CCC2(CC1)CN(Cc1ccccc1Cl)[C@@H](CO)c1[nH]c3cc(OC)ccc3c12	?	.	.

(continued)
mol	DUX4 inh	DUX4 inh difference	DUX4 inh control
CS(=O)(=O)Nc1ccc2c(c1)[C@@H]1C[C@H](CC(=O)NCC(F)(F)F)O[C@H](CO)[C@@H]1O2	3.9	4.8	-0.9
COc1ccc2c3c(n(C)c2c1)[C@@H](CO)N(C(=O)CN1CCOCC1)CC31CCN(C(=O)Nc2cccc(F)c2)CC1	1.4	-2.6	4.0
CCCNC(=O)C[C@H]1CC[C@@H]2[C@H](COC[C@H](O)CN2C(=O)c2cc(Cl)cc(Cl)c2)O1	6.9	0.4	6.6
CC(C)c1cn(CC[C@@H]2CC[C@H](NC(=O)c3cccc(F)c3)[C@H](CO)O2)nn1	4.1	1.5	2.6
C[C@H]1CN([C@@H](C)CO)C(=O)c2ccccc2-c2ccccc2CO[C@@H]1CN(C)C(=O)[C@H]1CCCN1C	2.2	4.4	-2.2
COc1ccc(CN(C)C[C@@H]2Oc3ccc(NC(=O)Nc4c(C)noc4C)cc3C(=O)N([C@H](C)CO)C[C@@H]2C)cc1	-2.7	-7.1	4.4
CC(C)C(=O)Nc1ccc2c(c1)C(=O)N(C)[C@@H]1CC[C@@H](CC(=O)NCc3ccc(F)cc3)O[C@@H]1CO2	4.7	1.8	3.0
COc1ccc(S(=O)(=O)N2CC[C@H]3[C@H](CO)Nc4ccc(-c5ccccc5F)cc4[C@H]32)cc1	?	.	.
CO[C@H](CN(C)C(=O)c1ccc2c(c1)OCO2)[C@H](C)CN([C@H](C)CO)S(=O)(=O)c1ccccc1	-0.3	-0.4	0.1
CS(=O)(=O)N1[C@H](CO)[C@H](c2ccc(-c3ccccc3F)cc2)[C@@H]1C#N	-2.0	-3.4	1.3

Next section.
mol	DUX4 inh	DUX4 inh difference	DUX4 inh control
C[C@@H](NC(=O)[C@@H]1[C@@H](CO)[C@@H]2Cn3c(ccc(-c4ccccc4)c3=O)[C@@H]2N1C)c1ccccc1	1.4	-5.0	6.4
O=C(C[C@H]1CC[C@@H]2[C@H](COC[C@@H](O)CN2C(=O)c2ccccc2)O1)N1CCOCC1	3.6	3.3	0.3
CCCC(=O)Nc1ccc2c(c1)OC[C@H](C)N(S(=O)(=O)c1cn(C)cn1)C[C@@H](C)[C@H](OC)CN(C)C2=O	9.6	4.4	5.2
C[C@H]1CN([C@@H](C)CO)C(=O)CCCn2nncc2CO[C@H]1CN(C)Cc1ccccc1C(F)(F)F	?	.	.
COc1ccc(NC(=O)Nc2ccc3c(c2)C(=O)N([C@H](C)CO)C[C@H](C)[C@@H](CN(C)Cc2ccncc2)OCCCC[C@H](C)O3)cc1	2.3	1.5	0.8
CCCC#Cc1ccc2c(c1)O[C@H](CN(C)C(=O)Nc1ccc(OC)cc1)[C@@H](C)CN([C@H](C)CO)S2(=O)=O	-7.8	1.4	-9.2
COCC(=O)N1C[C@@H]2[C@H](c3ccccc31)[C@@H](CO)N2C(=O)Nc1ccccc1F	-0.2	-1.5	1.3
COc1ccc2c3c([nH]c2c1)[C@H](CO)N(Cc1nccs1)CC31CCN(Cc2cncnc2)CC1	-1.9	-3.6	1.7
CCCN(C)C[C@@H]1Oc2cc(/C=C/c3ccccc3)ccc2S(=O)(=O)N([C@H](C)CO)C[C@@H]1C	2.5	-1.8	4.4
O=C(C[C@H]1C=C[C@H](NC(=O)Nc2cccc(F)c2)[C@H](CO)O1)NCC1CCCCC1	0.9	-4.0	4.9

Continued.
mol	DUX4 inh	DUX4 inh difference	DUX4 inh control
CNC(=O)C[C@@H]1CC[C@H]2[C@@H](COC[C@@H](O)CN2C(=O)Nc2ccc(Cl)c(Cl)c2)O1	4.1	10.5	-6.5
C[C@@H]1CCCCO[C@H](CN(C)Cc2ccc(C(F)(F)F)cc2)[C@H](C)CN([C@H](C)CO)C(=O)c2cc(NC(=O)Nc3cccc4ccccc34)ccc2O1	-5.2	-0.8	-4.4
CN(C)C(=O)c1ccc(-c2ccc([C@@H]3[C@@H](CO)N(C(=O)C4CCC4)[C@H]3C#N)cc2)cc1	0.2	0.4	-0.3
CCC(=O)N1[C@H](C(=O)N[C@@H](C)c2ccccc2)[C@@H](CO)[C@@H]2Cn3c(cccc3=O)[C@@H]21	-3.0	-1.9	-1.1
C[C@H]1CN([C@@H](C)CO)S(=O)(=O)c2ccc(C#CC3(O)CCCC3)cc2O[C@H]1CN(C)C(=O)c1cccnc1	-2.6	-3.5	0.9
COc1ccc2c3c(n(C)c2c1)[C@H](CO)N(CC1CC1)CC31CCN(S(=O)(=O)c2cccs2)CC1	?	.	.
O=C(NCc1ccc(F)cc1)[C@H]1[C@H](CO)[C@H]2Cn3c(cccc3=O)[C@@H]1N2C(=O)Cc1ccccn1	-0.5	-9.9	9.4

Compound profiles, from the list above. Order of screens: DUX4 inh, DUX4 inh difference, DUX4 inh control
CCC(=O)N1[C@H](C(=O)N[C@@H](C)c2ccccc2)[C@@H](CO)[C@@H]2Cn3c(cccc3=O)[C@@H]21 is listed as -3.0, -1.9, -1.1
C[C@H]1CN([C@@H](C)CO)S(=O)(=O)c2ccc(C#CC3(O)CCCC3)cc2O[C@H]1CN(C)C(=O)c1cccnc1 is listed as -2.6, -3.5, 0.9
CN(C)C(=O)c1ccc(-c2ccc([C@@H]3[C@@H](CO)N(C(=O)C4CCC4)[C@H]3C#N)cc2)cc1 is listed as 0.2, 0.4, -0.3
CNC(=O)C[C@@H]1CC[C@H]2[C@@H](COC[C@@H](O)CN2C(=O)Nc2ccc(Cl)c(Cl)c2)O1 is listed as 4.1, 10.5, -6.5
